# Rtt109 Vps75: C. albicans Rtt109 histone acetyltransferase inhibition | purified Rtt109/Vps75, ThioGlo CoA-SH fluorescence, 4 h | inhibition, % at 34.9 µM | actives 0.16% (n = 330,000) | AID 540336;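 active = inhibition of at least 50% in every replicate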
# Target sequence (Q5AAJ8 whole entry, looked up): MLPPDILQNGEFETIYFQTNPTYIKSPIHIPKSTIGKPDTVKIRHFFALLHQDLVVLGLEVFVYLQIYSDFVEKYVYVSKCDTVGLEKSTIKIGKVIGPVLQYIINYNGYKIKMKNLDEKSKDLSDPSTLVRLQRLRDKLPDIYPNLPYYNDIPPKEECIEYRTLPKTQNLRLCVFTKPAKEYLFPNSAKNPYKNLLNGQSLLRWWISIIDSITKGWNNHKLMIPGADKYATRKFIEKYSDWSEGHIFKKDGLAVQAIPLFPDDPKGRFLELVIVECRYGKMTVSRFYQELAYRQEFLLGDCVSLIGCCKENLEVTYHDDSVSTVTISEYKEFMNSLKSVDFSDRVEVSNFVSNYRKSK
# Wnt bcat act: activates Wnt/beta-catenin signaling in a reporter cell assay; actives 1.2% (n = 300,000); activation, % at 9.35 µM; activator, plate reader; in the data active = activation above about 30%, passing the limit was not always enough;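 note: 0% = neutral control wells and 100% = positive control wells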
# CAL PDZ FP: blocks peptide binding to human CAL PDZ domain. purified CAL PDZ, TMR-peptide fluorescence polarization, 1 h. actives 0.02% (n = 330,000). inhibition, % at 20 µM. Q9HD26;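 active = highest replicate inhibition of at least 40%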;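 note: plate controls were DMSO neutral control wells for no effect and unlabeled competitor peptide control wells for full effect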
#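 Test system: purified CerCALP PDZ construct; Compound dosing: one concentration, 20 µM compound; Also added: TMR-labelled reporter peptide T*-PRC34 bound in PDZ groove; Read-out: inhibition from polarization loss; Controls: unlabelled peptide and DMSO controls; Signal: FP readout, S and P plane fluorescence; Incubation: 1 h at RT.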
# DAGLB inh: diacylglycerol lipase beta (human) inhibition; AID 504411; inhibition, % at 5.17 µM; actives 0.059% (n = 340,000); Q8NCG7; HEK293T DAGLB membrane lysate, EnzChek fluorogenic substrate; in the data active = inhibition above about 34%;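 note: 0% = enzyme with vehicle and 100% = wells lacking enzyme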
# Target sequence (Q8NCG7 whole entry, looked up): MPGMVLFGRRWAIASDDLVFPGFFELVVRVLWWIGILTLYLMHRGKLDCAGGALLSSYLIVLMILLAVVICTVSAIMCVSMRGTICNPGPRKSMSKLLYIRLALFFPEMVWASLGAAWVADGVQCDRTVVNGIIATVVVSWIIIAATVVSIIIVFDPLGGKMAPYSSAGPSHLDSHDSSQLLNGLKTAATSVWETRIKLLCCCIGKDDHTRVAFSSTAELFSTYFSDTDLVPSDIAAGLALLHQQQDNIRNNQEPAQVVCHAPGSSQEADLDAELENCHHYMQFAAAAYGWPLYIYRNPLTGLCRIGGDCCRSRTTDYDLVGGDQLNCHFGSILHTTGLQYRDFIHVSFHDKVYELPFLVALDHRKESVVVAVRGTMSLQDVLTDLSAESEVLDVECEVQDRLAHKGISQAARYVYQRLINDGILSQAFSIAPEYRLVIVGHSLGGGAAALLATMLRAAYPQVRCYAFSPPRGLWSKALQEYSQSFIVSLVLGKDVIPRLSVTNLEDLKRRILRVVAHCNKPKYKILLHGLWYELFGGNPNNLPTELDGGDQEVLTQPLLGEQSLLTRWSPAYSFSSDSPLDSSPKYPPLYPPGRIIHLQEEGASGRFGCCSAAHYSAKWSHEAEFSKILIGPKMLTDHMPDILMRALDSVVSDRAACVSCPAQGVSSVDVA
# PvdQ acylase: blocks Pseudomonas aeruginosa PvdQ acylase activity | purified PvdQ acylase, fluorescence plate reader | inhibition, % at 10 µM | actives 0.063% (n = 340,000); in the data active = inhibition above about 30%, passing the limit was not always enough;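 note: 0% = vehicle neutral wells and 100% = reference inhibitor wells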
# Tat export inh: blocks Tat-dependent protein export in E. coli; AID 488895; actives 0.036% (n = 340,000); E. coli MC4100 TorA-mCherry Tat export, fluorescence; inhibition, % at 10 µM;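 active = mean replicate inhibition at least 50% and at least half of replicates individually reaching 50%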;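 note: exported cargo escapes ClpAP degradation while cytoplasmic cargo is degraded and loses fluorescence; 0% = median of neutral control wells and 100% = median of NaSCN control wells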
# PfHsp90 yeast 2: growth inhibition of yeast expressing Plasmodium Hsp90; inhibition, % at 9.4 µM; S. cerevisiae expressing PfHsp90, BacTiter-Glo ATP, 48 h; yeast lacking PDR1 and PDR3 efflux regulators; actives 0.32% (n = 310,000); AID 504621;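 active = every replicate shows inhibition above about 80%, whatever the replicate mean, limit read from the data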;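 note: 0% = DMSO neutral controls and 100% = 20 µM radicicol positive controls; yeast relying on Plasmodium falciparum Hsp90 in place of its own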
# Starred values were filed as active, the others as inactive; nt = no result given. Only part of the results is shown (hit frequency here may not be typical).
SMILES,Rtt109 Vps75,Wnt bcat act,CAL PDZ FP,DAGLB inh,PvdQ acylase,Tat export inh,PfHsp90 yeast 2
CC/C(=N\n1nnnc1Nc1ccccc1)c1ccccc1,-5.6,-10.9,nt,1.3,1.0,-12.3,nt
O=C(Nc1cccnc1)c1cccc(F)c1,10.6,-0.8,-0.8,0.8,-7.7,-5.9,-5.2
COc1cccc(NC(=O)N(C2CCCCC2)C(C)c2cccs2)c1 (stereo not given),-5.1,nt,-3.1,-0.4,-11.4,0.2,-5.1
O=C(C(Cc1ccccc1)N1C(=O)C2C3C=CC(C3)C2C1=O)N1CCCCCC1 (stereo not given),-0.4,-6.4,0.1,1.4,-11.8,25.5,-6.7
COC(=O)c1ccc(N=C2S/C(=C\c3cc(C)n(-c4cccnc4)c3C)C(=O)N2C)cc1,0.4,nt,-0.5,0.2,23.1,2.2,-2.6
Cc1ccc(C(=O)CCC(=O)Nc2cccc(C(F)(F)F)c2)cc1,6.4,nt,nt,-8.3,-16.9,-1.3,7.4
COc1ccc(Cl)cc1NC(=O)C[n+]1cccc(C)c1,-3.3,2.2,-0.9,-1.2,-10.5,0.4,11.2
Cc1cccc(NC(=O)COC(=O)c2n[nH]c3ccccc23)c1C,10.8,2.2,-1.3,-2.5,-15.1,10.8,-3.3
COc1ccccc1NS(=O)(=O)c1cc(C(=O)N2CC(C)CC(C)C2)ccc1C (stereo not given),-8.8,nt,-0.9,-0.3,-14.4,1.5,102.1*
COc1ccc2cc(CN(CCO)C(=O)c3ccc(Br)cc3)c(=O)[nH]c2c1,-17.2,nt,-1.9,1.3,-14.1,2.1,34.0
NCCN1C(=O)c2ccccc2C1(O)c1ccc(Cl)cc1 (stereo not given),nt,-3.4,nt,-0.5,nt,nt,nt
CCc1ccc(OCC(=O)NC(=S)Nc2ccc(C(=O)O)cc2)cc1,-5.5,-3.0,-1.5,1.9,-0.1,-10.8,-5.8
C=CC[C@]12C=C(OC)C(=O)C=C1O[C@@H](c1ccc3c(c1)OCO3)[C@H]2C,-6.6,2.2,-0.1,2.5,-3.4,-0.3,nt
Nc1nonc1-n1nnc(C(=O)N/N=C/c2ccc(OCc3ccc(F)cc3)cc2)c1COc1ccccc1,0.3,11.3,-0.1,-0.1,-24.3,-3.2,-5.7
CC1(C)N=C(SCC(=O)Nc2ccccc2)C(c2ccc(Cl)cc2)=N1,7.3,-1.1,-0.3,-6.0,2.2,-12.3,18.3
Cc1cc2n(c(=O)c1C#N)CCCN2c1ccccc1,-0.5,-0.6,0.1,0.8,18.9,-0.2,nt
CCCc1cc(C(=O)N2CCCC(C(=O)c3ccc(Cl)cc3)C2)n(C)n1 (stereo not given),2.0,0.4,-1.5,-2.7,-21.5,2.5,-21.0
O=C1OCC(c2ccccc2)=C1c1ccccc1,-1.7,1.5,-2.8,-1.2,-7.6,8.4,-21.2
CCCCn1c(N)c(N(Cc2ccccc2OC)C(=O)CN2C(=O)NC3(CCCC3)C2=O)c(=O)[nH]c1=O,-3.0,-4.2,0.7,1.1,-13.8,-0.4,-37.9
O=C(NC1CCC(Oc2ccc(C(=O)O)cc2)CC1)NC12CC3CC(CC(C3)C1)C2 (stereo not given),-5.8,-3.8,-0.5,3.6,-3.6,5.6,6.2
CCOC(=O)c1ccc(NC(=O)CSc2nc3c(c(=O)n2CC)SC(C)C3)cc1 (stereo not given),0.6,-4.7,-1.7,1.0,-9.3,-3.3,9.4
Cc1ccnc(SCC(=O)Nc2sc3c(c2C#N)CCC(C(C)(C)C)C3)n1 (stereo not given),-2.9,nt,-0.6,-1.6,-8.5,-6.5,7.9
O=C(Cn1ncc2c1-c1ccccc1OC2)N1CCc2ccccc21,4.1,0.7,-0.1,-2.7,-5.9,-9.1,-3.0
CCc1ccc(OCc2nnc(SCc3ccc(C(=O)O)cc3)o2)cc1,-2.8,nt,0.1,0.2,13.1,0.3,5.8

# 4 compounds picked at random from the list so far:
SMILES,Rtt109 Vps75,Wnt bcat act,CAL PDZ FP,DAGLB inh,PvdQ acylase,Tat export inh,PfHsp90 yeast 2
O=C1OCC(c2ccccc2)=C1c1ccccc1,-1.7,1.5,-2.8,-1.2,-7.6,8.4,-21.2
Cc1ccnc(SCC(=O)Nc2sc3c(c2C#N)CCC(C(C)(C)C)C3)n1 (stereo not given),-2.9,nt,-0.6,-1.6,-8.5,-6.5,7.9
Nc1nonc1-n1nnc(C(=O)N/N=C/c2ccc(OCc3ccc(F)cc3)cc2)c1COc1ccccc1,0.3,11.3,-0.1,-0.1,-24.3,-3.2,-5.7
O=C(Cn1ncc2c1-c1ccccc1OC2)N1CCc2ccccc21,4.1,0.7,-0.1,-2.7,-5.9,-9.1,-3.0

# (more compounds)
SMILES,Rtt109 Vps75,Wnt bcat act,CAL PDZ FP,DAGLB inh,PvdQ acylase,Tat export inh,PfHsp90 yeast 2
CCCC(O)(CCN1CCCCC1)c1ccc(OCC)cc1 (stereo not given),6.7,-4.2,-0.2,-1.6,-0.6,-5.0,-3.2
Cn1c(CCN2CCCCC2)nc2cc(NS(=O)(=O)c3ccccc3)ccc21,5.6,-20.1,-0.6,1.5,-8.0,2.6,nt
CC(Sc1nc2ccccc2s1)C(=O)N1CCOCC1 (stereo not given),0.3,7.0,-1.7,-2.0,-17.7,2.1,18.3
CN(C(=S)SCc1ccccc1)C1CCS(=O)(=O)C1 (stereo not given),-5.6,-1.3,-2.1,-3.2,-0.6,-12.6,20.4
Cc1cc(C)n(C(=O)C(C)n2nc([N+](=O)[O-])c(Br)c2C)n1 (stereo not given),0.6,0.3,1.5,-1.2,0.0,-2.9,12.2
CCOC(=O)c1cnn(-c2ccccc2)c1NC(=O)C(F)(F)C(F)(F)C(F)(F)F,nt,nt,-1.9,-0.6,8.4,0.7,-43.9
Cc1ccc2nc(-c3ccccc3)cc(C(=O)NCC3CCCO3)c2c1 (stereo not given),nt,-1.7,nt,nt,nt,nt,nt
Cc1cc(C)n(CC(=O)N/N=C/c2cc(Br)cc([N+](=O)[O-])c2O)n1,-1.5,-1.7,-1.8,15.3,-4.8,13.4,-66.4
COc1ccc(C(=O)Nc2ccc(N3CCCC3)cc2)cc1OC,-0.6,-0.1,nt,3.2,-0.8,-9.7,-7.1
Fc1ccc(-c2cn3ccccc3n2)cc1,2.7,17.4,-1.2,-1.9,24.2,11.0,4.2
CCN(c1ccccc1)S(=O)(=O)c1ccc(C(=O)NCC(c2cccs2)N(C)C)cc1 (stereo not given),-6.9,-2.8,-0.7,-0.6,2.0,0.7,8.2
O=C(c1nnsc1S(=O)c1ccc(Cl)cc1)N1CCOCC1 (stereo not given),136.1*,-7.5,-0.5,-6.5,-14.9,-11.7,-31.1
CCOC(=O)c1ccc(NC(=O)CCOc2ccc(OC)cc2)cc1,-15.6,nt,-0.1,-8.1,-8.8,7.0,28.6
CC(=O)NC1(NC(C)=O)CCN(C)C(c2ccccc2)C1C (stereo not given),-2.2,nt,-8.1,4.7,-9.6,-4.8,-29.7
Cc1nnc(SCC(=O)NCc2cccs2)[nH]c1=O,-1.4,nt,0.5,0.4,4.5,-14.2,-15.0
CC(C)(C)NC(=O)CON=C1c2ccccc2-c2ccccc21,-5.2,-1.1,-1.9,-8.5,-16.7,2.3,-34.8
CCOc1ccc(C2C(C(=O)c3ccc(C)o3)=C(O)C(=O)N2Cc2cccnc2)cc1 (stereo not given),4.7,-1.0,-1.5,0.3,1.3,-10.9,3.4
COc1ccccc1NS(=O)(=O)c1cc(NC(=O)CCNC(C)=O)ccc1C,-1.7,-1.7,-1.1,1.2,-5.7,-8.4,-7.7
O=C(Nc1ccccc1)c1ccccc1NS(=O)(=O)c1ccc(Cl)s1,-0.5,nt,-1.6,10.7,-7.5,0.3,7.3
COc1cc2[nH]c(C(=O)N3CC(C)OC(C)C3)cc2c(OC)c1OC (stereo not given),-9.8,3.9,-0.8,-2.0,5.9,-3.0,3.8
CC(=O)Nc1nc(CCN2C(=O)c3ccccc3C2=O)cs1,-2.1,1.3,-0.6,-1.4,-11.1,1.3,16.7
CC1CCc2c(nc3ncnn3c2Nc2ccc(OC(F)(F)F)cc2)C1 (stereo not given),13.9,-1.0,-0.9,1.5,-4.4,-3.4,-19.1
C/C(=N/OC(=O)c1ccccc1)c1oc(C)nc1C,-7.9,-3.1,1.9,0.5,-6.2,0.4,6.4
COc1cccc(C2=NOC(C(=O)NC(C)C)C2)c1 (stereo not given),-11.1,nt,nt,-0.6,-14.6,-10.5,nt
O=C(c1cccnc1)N1CCN(Cc2cccc(F)c2)CC1,-5.2,nt,-0.8,-2.8,-7.4,2.4,5.1
CSc1ccccc1NC(=O)c1cc(CC(C)C)on1,-6.6,5.9,-0.8,-22.0,-12.8,2.7,15.3
COc1cccc(OCc2cc(C(=O)N(C)CCOc3ccc(C)cc3)no2)c1,13.2,-1.0,-3.6,-10.5,-0.9,24.7,-12.1
Cc1ccnc(NC(=O)CCC(=O)N(CC(=O)NC(C)(C)C)c2ccc3c(c2)OCO3)c1,1.1,-0.6,-3.0,1.1,-2.4,-3.9,-14.5
N=c1c2c(-c3ccccc3)c(-c3ccccc3)n(Cc3ccccc3)c2ncn1CCCO,-15.5,-25.4,-2.3,0.9,-5.7,4.0,-35.3
COCCN(C(=O)COC(=O)c1ccccc1Cc1ccccc1)c1c(N)n(Cc2ccccc2)c(=O)[nH]c1=O,2.4,1.4,-1.2,2.4,-12.5,16.1,0.5
C[C@H]1O[C@H]1P(=O)(O)O,14.7,-0.2,0.0,-0.8,2.2,-9.3,3.7
Cc1cccc(C(=O)NCCC(=O)Nc2ccc(C)c(F)c2)c1,8.3,-0.8,-3.9,-4.2,9.1,3.1,11.8
O=C(NCc1ccc(F)cc1)C(=O)c1cn(CC(=O)N2CCCC2)c2ccccc12,10.2,2.8,-0.3,1.2,4.4,3.4,-7.5
O=C(NCc1ccccc1Cl)c1ccccc1Oc1ccccc1,-13.7,-7.2,-0.9,-3.2,-8.3,5.4,-38.8
CCN1CCN(C(=O)CS(=O)Cc2nc(-c3ccc(OC)cc3)oc2C)CC1 (stereo not given),-2.4,2.8,0.0,0.1,-2.5,-1.7,36.9
O=C(O)c1ccc2c(c1)CC(c1ccccc1)OC2=O (stereo not given),-10.0,nt,0.0,-0.4,-17.0,-0.6,-13.9

# 3 compounds from above, ordered by the value under PvdQ acylase, descending:
Molecule	Rtt109 Vps75	Wnt bcat act	CAL PDZ FP	DAGLB inh	PvdQ acylase	Tat export inh
COc1cccc(OCc2cc(C(=O)N(C)CCOc3ccc(C)cc3)no2)c1	13.2	-1.0	-3.6	-10.5	-0.9	24.7
Cc1ccnc(NC(=O)CCC(=O)N(CC(=O)NC(C)(C)C)c2ccc3c(c2)OCO3)c1	1.1	-0.6	-3.0	1.1	-2.4	-3.9
N=c1c2c(-c3ccccc3)c(-c3ccccc3)n(Cc3ccccc3)c2ncn1CCCO	-15.5	-25.4	-2.3	0.9	-5.7	4.0

# (continued)
SMILES,Rtt109 Vps75,Wnt bcat act,CAL PDZ FP,DAGLB inh,PvdQ acylase,Tat export inh,PfHsp90 yeast 2
COc1ccc(CN2CCN(Cc3nc4ccccc4s3)CC2CCO)c(C)c1C (stereo not given),nt,-0.2,-1.1,-1.9,-7.5,-6.0,-8.9
CCN1CCN(C(=O)NCc2ccccc2)CC1,-4.5,4.5,-1.1,0.9,-9.5,-11.1,19.0
CCC(C)C(NC(=O)OC(C)(C)C)C(=O)NCc1ccco1 (stereo not given),-2.2,-2.8,0.0,-4.9,4.6,-1.3,-6.3
CCc1nnc(NS(=O)(=O)c2ccc(NS(=O)(=O)c3ccccc3[N+](=O)[O-])cc2)s1,3.2,-2.8,-0.3,-0.7,-16.8,-7.9,32.3

# Compound activity: PubChem BioAssay, several laboratories
